S aureus helic: inhibitors of S. aureus replicative helicase, primary screen, biochemical, fluorescence unwinding readout. replicative DNA helicase (DnaC/DnaB), Staphylococcus aureus. purified S. aureus helicase, fluorescence unwinding assay; about half of the hits fall short of the stated cut. inhibition, %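 (tested at about 80 µM)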. 120,000 compounds, 0.05% hits. AID 485395, 2010;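 active = both duplicates at 50% or more, or one of them with a favoured structure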;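 also: 0% = mean of negative control wells and 100% = mean of positive control wells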
MgrA DNA FP: S. aureus MgrA activity modulators, primary screen, biochemical, S. aureus Newman, fluorescence polarization. MgrA-DNA binding. inhibition, %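 (about 10 µg/mL by stock and volumes)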. 84,000 compounds, 0.13% hits. AID 602314, 2012;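 active = above 50% in either of two replicates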;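 also: 0% = protein plus DNA without compound and 100% = DNA alone without protein; higher means less MgrA bound to DNA so lower polarization; one replicate is shown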
The depositor's hits bear a star; . = not tested or not shown; & = joins results of further samples. Not all compounds are listed; the hit share may differ from the screen's.

No.	SMILES	S aureus helic	MgrA DNA FP
1	CCC1CCCCN1C(=O)c1cc(-c2ccc(F)cc2)no1 (configuration not stated)	31.0	.
2	CCOc1ccc(-n2c(Cc3cc(=O)[nH]c(=O)[nH]3)nnc2SCC(=O)Nc2ccccc2F)cc1	15.0	.
3	c1ccc(Cn2c(NCc3cccs3)nc3ccccc32)cc1	12.0	.
4	CCCC1=C(C(=O)OCC)C(c2ccccc2)C(C#N)=C(N)O1 (configuration not stated)	12.0	.
5	CCC1=Nc2cc(C(=O)N(C)Cc3ccccc3)ccc2Sc2ccc(C)cc21	4.0	-1.2
6	O=C(COC(=O)Cc1cccs1)NCc1ccc2c(c1)OCO2	-16.0	.
7	CN(C)c1ccc(C2CC(c3cccs3)=NN2C(=O)CCC(=O)O)cc1 (configuration not stated)	.	-1.8
8	CC1=C(N(C)c2ccccc2)C(=O)N(C2CCCCC2)C1	3.0	-3.0
9	Cc1ccc(-c2c(C)sc3ncn(CC(=O)O)c(=O)c23)cc1C	4.0	-1.5
10	CC(C(=O)Nc1ccc(S(=O)(=O)N2CCOCC2)cc1)N1CCN(c2ccccn2)CC1 (configuration not stated)	16.0	.
11	COc1ccc(OC)c(C(=O)c2ccc(Cl)cc2)c1	.	-0.3
12	O=C(NCCC(c1ccccc1)c1ccccc1)C1=COCCO1	-22.0	-1.4
13	COC(=O)c1ccc(/C=C/c2cccc(Cl)c2)s1	.	1.4
14	O=C(O)CCCN=C1NC2(CCCC2)Cc2ccccc21	11.0	0.3
15	CC(=O)N1N=C(c2c(-c3ccccc3)c3cc(Cl)ccc3n(C)c2=O)CC1c1ccco1 (configuration not stated)	25.0	.
16	Cc1noc(C)c1CC(=O)Nc1ccccc1N1CCCCC1	-3.0	.
17	COc1ccc(OCCOc2ccccc2F)cc1	4.0	5.0
18	CCOC(=O)NC(=O)c1cn(Cc2ccco2)c(=O)[nH]c1=O	-14.0	.
19	CCc1nnc2c(Nc3ccc(F)cc3)nc3ccccc3n12	-29.0	.
20	CCOC(=O)c1c(C)n(-c2ccc(OC)cc2)c2ccc(OCC(N)=O)cc12	3.0	.
21	CC(CN1c2ccccc2Sc2ccccc21)N(C)C (configuration not stated)	.	6.3&2.0
22	CCOc1cc(O)c(-c2[nH]ncc2Oc2ccccc2)cc1CC	9.0	.
23	CCOC(=O)N/N=C/c1ccc(Sc2ccc(Cl)cc2)o1	-19.0	.
24	CCCN1CCC2(CC1)C1CN(CCC)CC=C1C(C#N)=C(N)C2(C#N)C#N (configuration not stated)	6.0	20.4
25	O=C(O)C1CCC(C(=O)O)C1 (configuration not stated)	4.0	.
26	O=S(=O)(c1ccc2nsnc2c1)N1CCCCC1c1cccnc1 (configuration not stated)	.	-2.0
27	CCCNc1nc(NC2CCCCC2)nc(OC(C)C)n1	6.0	0.0
28	Cc1c(O)c(-c2ccccc2)c(=O)n(-c2ccccn2)c1-c1ccccc1	.	2.3
29	COc1cc(CN(C)C(=O)CN2C(=O)C3C4C=CC(C4)C3C2=O)ccc1OC(F)F (configuration not stated)	-8.0	.
30	COc1ccc(OCC(=O)Nc2cccc(NC(=O)c3ccco3)c2)cc1	10.0	-3.6
31	O=c1[nH]c2ccccc2nc1/C=C(\O)c1ccco1	-101.0	8.2
32	O=C(Nc1ccncc1)c1cccc(S(=O)(=O)N2CCCC2)c1	-18.0	.
33	COc1ccc(-c2nc(C(N)=O)c3[nH]c(=O)n(CC4CCCO4)c3n2)cc1O (configuration not stated)	-8.0	.
34	CCOC(=O)c1noc2nc(C)nc(NCCN3CCOCC3)c12	-21.0	.
35	NNc1nc2cc3c(cc2s1)OCCO3	12.0	.
36	Cc1csc(C(C#N)C(=O)CSc2nc3cc(Cl)ccc3s2)n1 (configuration not stated)	-2.0	.
37	CCC(C)OC(=O)C1CC=CCC1C(=O)Nc1ccc(C)cc1 (configuration not stated)	6.0	0.9
38	COC(=O)CCC(=O)c1ccc(Br)s1	16.0	.
39	COc1cccc(OC)c1C(=O)OCc1ccccc1C#N	-15.0	.
40	COc1ccc(-n2nc(C(=O)NC3CCCC(C)C3C)c3c4ccccc4n(C)c3c2=O)cc1 (configuration not stated)	15.0	1.9
41	CN(C)S(=O)(=O)c1cc(C(=O)NCC2CCCO2)c(Cl)cc1Cl (configuration not stated)	7.0	-2.5
42	CCOC(=O)c1noc2ncnc(N3CCc4ccccc43)c12	9.0	.
43	Cc1occc1C(=O)Nc1ccc(N(C)C)cc1	2.0	0.1
44	CCOC(=O)C1CCCN(C(=O)c2ccccc2OCC)C1 (configuration not stated)	12.0	-1.6
45	N#Cc1ccc(COC(=O)c2ccc(-n3cnc4ccccc43)cc2)cc1	-18.0	.
46	O=C(Cc1cc(=O)[nH][nH]1)N/N=C/C=C/c1ccccc1	30.0	.
47	COc1ccc(-c2noc(N3CCC(C(=O)N(C)c4ccccc4C)CC3)n2)cc1	-16.0	.
48	O=C(CSc1ncnc2c1oc1ccccc12)Nc1ccc(F)cc1	14.0	.
49	COc1cccc(NC(=O)Cn2cc(C(=O)c3ccccc3)c(=O)c3cc(OC)ccc32)c1	13.0	-6.0
50	CCS(=O)CCSc1nc(-c2cccs2)cc(C(F)(F)F)c1C#N (configuration not stated)	-1.0	-3.8
51	CCc1ccc(C2CC(c3ccccc3)n3ncnc3N2)cc1 (configuration not stated)	7.0	1.5
52	O=C(Nc1nc2ccccc2c(=O)s1)c1ccc(Cl)cc1	.	3.5
53	COc1ccc(OC)c(C(=O)Cn2cnc3sccc3c2=O)c1	-8.0	.
54	CCc1ccccc1NC(=O)CCNS(=O)(=O)c1ccc2c(c1)CC(C)N2C(C)=O (configuration not stated)	8.0	1.1
55	Cc1cc(NC(=O)CC(=O)Nc2ccc3nc4n(c(=O)c3c2)CCCCC4)no1	3.0	.
56	CC(C)(C)NS(=O)(=O)c1cccs1	4.0	0.8
57	COc1ccc(OCC(=O)NN)cc1	25.0	.
58	Cc1ccc(NC(=O)CC2SC(N)=NC2=O)cc1C (configuration not stated)	-12.0	.
59	CC1CC(C)CN(C(=O)c2ccc(-n3c(=S)[nH]c4ccccc4c3=O)cc2)C1 (configuration not stated)	3.0	1.4
60	CCOC(=O)c1cc2cc(Cl)cc(Cl)c2oc1=O	.	-2.6

Further records follow.
No.	SMILES	S aureus helic	MgrA DNA FP
61	Cc1ccc(C(C)C)c(OCC(=O)OCC(N)=O)c1	-14.0	.
62	O=C(CCCn1c(=O)oc2ccccc21)NNc1c(F)c(F)cc(F)c1F	-3.0	.
63	N#Cc1ccc(N2C(=O)CSC(c3ccccc3)C2=O)cc1 (configuration not stated)	.	-6.8
64	COC(=O)C1=C(NC(=O)Cc2cccs2)CCS1	4.0	.
65	O=C1CSCN1Cc1cc(Cl)cc(Cl)c1	.	-1.2
66	COc1cccc(CN(C)C(=O)c2cc3ccccc3cc2OCc2c(C)noc2C)c1OC	-3.0	.
67	O=C(CCc1c[nH]c2ccccc12)N1CCn2c(nc3ccccc32)C1	2.0	8.2
68	COc1ccc(CC(NC(C)=O)C(=O)NC2CCN(c3nc(OC)nc(OC)n3)CC2)cc1 (configuration not stated)	5.0	-1.0
69	Clc1ccc(Cn2nnc3ccccc32)cc1Cl	15.0	4.7
70	c1ccc(-c2noc(NC3CC3)n2)cc1	-2.0	.
71	CCOC(=O)c1c[nH]n2c(=O)cc(-c3ccccc3)nc12	.	-2.4
72	CC(=N)c1c(O)c2ccccc2oc1=O	-23.0	.
73	COc1cc(/C=C/C(=O)O)ccc1O	.	2.8
74	N#Cc1ccccc1Cn1c(=O)n(-c2ccc(CC(=O)Nc3ccccc3)cc2)c(=O)c2sccc21	-20.0	2.2
75	Cc1[nH]c2nc3ccccc3n2c(=O)c1CCC(C)C	-6.0	4.2
76	O=S(=O)(Cc1ccccc1)c1ccc(C(F)(F)F)cn1	.	-1.2
77	C/C=C/COC(=O)C1=C(C)NC(=O)NC1c1ccc(OCc2ccccc2)c(OC)c1 (configuration not stated)	.	-0.9
78	CN(C)c1ncnc2c1ncn2C1OC(CO)C(N)C1O (configuration not stated)	3.0	-4.9
79	O=C(NCC1COc2ccccc2O1)c1cccs1 (configuration not stated)	-11.0	.
80	COc1ccc2cc(C(=O)O)ccc2c1	-1.0	-2.4
81	COc1ccc(NC2=NS(=O)(=O)C(c3ccccc3)=C2C)cc1	22.0	.
82	O=C(O)CCNC(=O)c1cccnc1	14.0	1.9
83	Cn1cc(S(=O)(=O)Nc2ccc(Oc3c(Cl)cccc3Cl)nc2)cn1	.	-0.2
84	O=C(NCc1ccccn1)c1ccc(COc2ccc(Cl)cc2)o1	3.0	.
85	CC1CN(c2ccc(NC(=S)NCc3ccco3)cc2)CC(C)O1 (configuration not stated)	.	0.8
86	O=[N+]([O-])c1ccc(Oc2c(Cl)cc(S(=O)(=O)N3CCCCC3)cc2Cl)c(Cl)c1	.	2.3
87	Cc1cc(NS(=O)(=O)c2ccc(NC(=O)C3COc4ccccc4O3)cc2)nc(C)n1 (configuration not stated)	9.0	.
88	Cc1ccc(-n2nc(C)c3c(C)onc3c2=O)cc1	.	2.4
89	Cc1ccc(-c2nc3nc[nH]n3c2Nc2ccccc2)cc1	5.0	.
90	Cc1ccc(S(=O)(=O)N2CCC[C@H]2C(=O)OCC(=O)N2c3ccccc3NC(=O)C2(C)C)cc1	9.0	.

Arranged by value in MgrA DNA FP (lowest first): some entries from above
entry | canonical_smiles | S aureus helic | MgrA DNA FP
60 | CCOC(=O)c1cc2cc(Cl)cc(Cl)c2oc1=O | . | -2.6
68 | COc1ccc(CC(NC(C)=O)C(=O)NC2CCN(c3nc(OC)nc(OC)n3)CC2)cc1 (configuration not stated) | 5.0 | -1.0
27 | CCCNc1nc(NC2CCCCC2)nc(OC(C)C)n1 | 6.0 | 0.0
40 | COc1ccc(-n2nc(C(=O)NC3CCCC(C)C3C)c3c4ccccc4n(C)c3c2=O)cc1 (configuration not stated) | 15.0 | 1.9
74 | N#Cc1ccccc1Cn1c(=O)n(-c2ccc(CC(=O)Nc3ccccc3)cc2)c(=O)c2sccc21 | -20.0 | 2.2
17 | COc1ccc(OCCOc2ccccc2F)cc1 | 4.0 | 5.0
31 | O=c1[nH]c2ccccc2nc1/C=C(\O)c1ccco1 | -101.0 | 8.2

(listing goes on)
No.	SMILES	S aureus helic	MgrA DNA FP
91	CCN(c1ccccc1)c1nc2ccccc2n2nnnc12	-7.0	1.7
92	CCCSc1nc(C)c(CC(=O)O)c(=O)[nH]1	7.0	-2.7
93	C/C(=N\NC(=O)c1ccco1)c1ccc(C)o1	6.0	-1.7
94	CCOC(=O)C1=C(C)N=c2s/c(=C\c3cc4c(cc3Br)OCO4)c(=O)n2C1c1ccc(OC)cc1 (configuration not stated)	.	-1.2
95	CCOC(=O)C1CCN(c2nc3ccccc3nc2C(C#N)C(=O)NCCc2ccc(OC)c(OC)c2)CC1 (configuration not stated)	13.0	.
96	CC1=NN(c2ccccc2)C(=O)C1(C)N (configuration not stated)	11.0	-3.4
97	CC(C)Cn1ccc(=O)n(CC(C)C)c1=O	3.0	.
98	CN1C(=O)NC(=O)/C(=C/c2ccc(N(C)C)cc2)C1=O	-11.0	4.9
99	O=C(NCCCO)Nc1ccc2nc(-c3ccco3)c(-c3ccco3)nc2c1	0.0	77.5*
100	Cc1cn([C@H]2C[C@H](N=[N+]=[N-])[C@@H](CO)O2)c(=O)[nH]c1=O	.	0.9
101	NC(=O)NC(=O)C[n+]1ccc(/C=N/O)cc1	5.0	-0.3
102	Cc1cc(-n2nc(C)cc2C)nc(-n2nc(C)cc2C)n1	.	-1.4
103	Cc1cc(=O)oc2cc(NC(=O)c3ccc(OC(F)F)cc3)ccc12	8.0	.
104	FC(F)(F)c1cc(-c2cn3ccccc3n2)cc(C(F)(F)F)c1	.	0.0
105	Cc1ccc2c(c1)N(CCO)/C(=C/c1sc3ccccc3[n+]1C)S2	19.0	0.9

Three entries from above, set out differently.
46. O=C(Cc1cc(=O)[nH][nH]1)N/N=C/C=C/c1ccccc1
  S aureus helic: 30.0	MgrA DNA FP: .

100. Cc1cn([C@H]2C[C@H](N=[N+]=[N-])[C@@H](CO)O2)c(=O)[nH]c1=O
  S aureus helic: .	MgrA DNA FP: 0.9

25. O=C(O)C1CCC(C(=O)O)C1 (configuration not stated)
  S aureus helic: 4.0	MgrA DNA FP: .

Next structures follow.
No.	SMILES	S aureus helic	MgrA DNA FP
106	O=C(Cn1[nH]c(=O)c2ccccc2c1=O)NCCCN1CCCC1=O	-11.0	.
107	Cc1ccc(C)c(N2CCN(c3ncnc4onc(-c5ccc(F)cc5)c34)CC2)c1	3.0	.
108	OC(c1nc2ccccc2[nH]1)C(O)C(O)C(O)c1nc2ccccc2[nH]1 (configuration not stated)	.	-0.3
109	CN(Cc1ccccc1)C(=O)Cn1ncc2c3ccccc3n(Cc3ccccc3F)c2c1=O	0.0	.
110	CN(C)CCN1CC(C(=O)O)CC1=O (configuration not stated)	-1.0	1.1
111	CCn1ccc(C(=O)Nc2sc(C(=O)OC)c(C)c2C(=O)OC)n1	10.0	1.7
112	CCN1CCN(C(=O)C2=CC(c3ccc(OC)cc3)=NS(=O)(=O)N2C)CC1	10.0	4.2
113	Cc1ccc(NCc2ccc(O)c3ncccc23)cc1	11.0	10.8
114	Cc1c(C)n(C)c2ccc(C(=O)O)cc12	3.0	1.3
115	C=CCn1c(CCNC(=O)C(C)(C)C)nc2ccccc21	4.0	.
116	Cc1cc(C)cc(N/C=C(\C#N)S(=O)(=O)Cc2ccc(Cl)cc2)c1	.	-3.6
117	Cc1nc2ccccn2c1-c1ccnc(SCC(=O)c2ccc(Cl)cc2)n1	.	-2.3
118	Cc1onc(-c2ccccc2)c1C(=O)NCCSCc1ccco1	15.0	.
119	COc1ccccc1NC(=O)Cc1nc(CSc2nc(C)cs2)cs1	-16.0	.
120	CN(C)c1cccc2cccc(N(C)C)c12	.	-1.0
121	CCn1c(SCc2ccc(Br)cc2)nnc1-c1ccncc1	5.0	0.2
